Compound activity as filed in PubChem BioAssay.
2A StopGo: lowers the luciferase signal of an FMDV 2A StopGo reporter; Potency, µM (highest dose often 57.9 µM), inactives show at the top dose signal change, negative = less light; human cells with a luciferase reporter of 2A StopGo recoding; control for the full effect not named in the record; 1.2% of 410,000 active; active = well fitted falling curve with a large enough effect; inconclusive = small, poorly fitted or top-dose-only effect; inactive = no such curve, though single readings can be large or run the other way; tested in HEK293T cells; also: nearly all actives have a fitted effect of over 45% in size; luciferase light after 4 h
RE007 growth inh: less growth of the S. pombe RE007 Vpr strain; S. pombe RE007 Vpr strain, BacTiter-Glo ATP luminescence, 24 h; control for the full effect not named in the record; Potency, µM (top dose mostly 92.2 µM), for inactives: at the highest dose activity change, negative = less growth; 0.21% of 360,000 active; active = well fitted falling curve with a large enough effect; inconclusive = small, poorly fitted or top-dose-only effect; inactive = no such curve, though single readings can be large or run the other way;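 also: nearly all actives have a fitted effect of over 50% in size; the assay follows cell death caused by Vpr and the record does not say whether a fall means rescue or toxicity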
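Fission yeast RE007 carrying one integrated HIV-1 vpr copy, seeded at OD 0.01 in PMG+AL medium with 23 nL pinned compound. Grown 24 h at 30 degrees; viability read by BacTiter-Glo luminescence after 5 min.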
* marks the source's active call; other numbers are inactive results; u = inconclusive; [ ] = dose if it differs, or a comment. % is scaled to controls: 0 for no effect and ±100 for the full control effect; potency is read from the fitted curve at half-maximal effect.

SMILES	2A StopGo	RE007 growth inh
Cc1ccc(S(=O)(=O)N2C[C@H]3C(=O)C[C@@H](c4ccccc4)N(S(=O)(=O)c4cccc(C)c4)[C@H]3C[C@H]2c2ccccc2)cc1	-4%	-10%
O=C1NC[C@H](Cc2ccc(O)cc2)N(C[C@@H]2CCCN2C[C@H](Cc2ccccc2)N2C[C@H](Cc3ccc(O)cc3)N(CC3CCCCCC3)C(=O)C2=O)C1=O	15%	-13%
CC(=O)NC(c1cccc(F)c1)c1nc(-c2cccc(F)c2)cs1 (stereo not drawn)	-6%	17%
c1ccc(CNCc2ccc(CNCc3ccccc3)cc2)cc1	-20%	-5%
CN(C(=O)c1cccc(NC(=O)Cc2cccc(NC(=O)C3CCN(C(=O)c4ccccc4)CC3)c2)c1)C1CCCC1	-10%	3%
CC(C)NC(=O)C1(C)CN(S(C)(=O)=O)CC(=O)N1CCc1ccccc1F (stereo not drawn)	-17%	-6%
S=C1NCCN1CC1CCN(CCC23CC4CC(CC(C4)C2)C3)CC1	-10%	-4%
Cc1cccc(-c2ccc3c(c2)C2CC3CCN2C(=O)OCc2ccccc2)c1 (stereo not drawn)	15%	-19%
CC(=O)Oc1c(Cl)cc(N(C(C)=O)S(=O)(=O)c2ccccc2)c2ccccc12	-8%	-3%
CC1OC(COCc2ccccc2)Cc2[nH][nH]c(=O)c21 (stereo not drawn)	22%	-8%
Cc1ccccc1N1Cc2ccccc2C1=O	-8%	-21%
C[C@H](O)[C@@H]1C(=O)N2CCc3c([nH]c4ccccc34)[C@@H]2C[C@@H]1N(C)Cc1ccc(Cl)cc1	-24%	-4%
C#CCN(C[C@H]1[C@H](OC(=O)NCc2ccco2)[C@H](OC(=O)NCc2ccco2)C[C@H]2C(=O)N(c3ccccc3)C(=O)[C@@H]12)S(=O)(=O)c1ccc(C)cc1	-2%	7%
C#CCNC(=O)C1=C[C@@H](c2ccc3c(c2)OCO3)C[C@@H](OCc2ccc(CO)cc2)O1	9%	-2%
OC[C@@H]1CN(Cc2ccc(Cl)cc2)C[C@H](n2cnc3c(N4CCN(c5ccccc5)CC4)ncnc32)O1	u	4%
O=C(NCc1cc(Cl)cc(Cl)c1)c1ccc2sc([C@H]3C[C@H](O)[C@@H](CO)O3)nc2c1	-1%	3%
O=[N+]([O-])c1ccc2oc(/C=C/c3ccc(O)cc3)nc2c1	63%[activator]	9%
CC(C)C(=O)Nc1cccc(COc2ccc(CN(Cc3ccccc3)C(=O)OC(C)(C)C)cc2)c1	11µM*	10%
COc1ccc(C(O)c2ncc(-c3ccccc3OC)[nH]2)cc1F (stereo not drawn)	18%	-10%
COc1ccccc1N(C)S(=O)(=O)c1ccc(C(=O)N(C)Cc2cccc(F)c2)cc1	u	-8%
COc1ccc(N2CC(C)(C)[C@H](CC(=O)Nc3ccccc3)C2=O)cc1	0%	3%
O=C(c1ccco1)N1CCN(C(=O)c2ccco2)CC1	12%	5%
O=C1c2ccccc2C(c2nc3ccccc3[nH]2)N1c1ccccc1 (stereo not drawn)	-8%	7%
C[C@H](NC(=O)c1ncn2c1C(=O)NC[C@@H]2C)c1ccccc1	-28%	6%

Profiles, quoted from the list.
Cc1cccc(-c2ccc3c(c2)C2CC3CCN2C(=O)OCc2ccccc2)c1 (stereo not drawn) in the list: 2A StopGo: 15%; RE007 growth inh: -19%
O=C(c1ccco1)N1CCN(C(=O)c2ccco2)CC1 in the list: 2A StopGo: 12%; RE007 growth inh: 5%

(listing goes on)
SMILES	2A StopGo	RE007 growth inh
Cn1c(=O)c2cc(NC(=O)NCc3ccccc3)ccc2n1Cc1ccc(Cl)cc1	25%	2%
O=C(NCCCn1cccn1)c1cc(COc2ccccc2)on1	55%[activator]	-6%
Cc1csc(NC(C)c2nc3cc(Cl)c(Cl)cc3n2CCCO)n1 (stereo not drawn)	-7%	-1%
O=C1CCN(CCCN2CCC(=O)N(Cc3ccccc3)C2=S)C(=S)N1Cc1ccccc1	-28%	-18%
CC1=C(C(=O)Nc2ccccc2C(=O)N2CCN(c3ccccc3)CC2)SCCO1	-25%	-16%
C[C@H](CO)N1C[C@H](C)[C@@H](CN(C)S(=O)(=O)c2cccc(C#N)c2)OCc2cn(nn2)CCCC1=O	-22%	-5%
[O-][N+](=Cc1ccccc1)CC1(O)CCCCC1	-9%	8%
CCOC(=O)C1(C)CCN1C(=O)c1ccccc1OC(F)(F)F (stereo not drawn)	-20%	-13%[18.4 µM]
CN(CCc1ccccc1)C(=O)c1ccc(NC(=O)Cc2cccc(NC(=O)C3CCN(C(=O)C4CCC4)CC3)c2)cc1	-13%	2%
CC(=O)OCC(=O)[C@H]1CC[C@H]2[C@@H]3CC[C@H]4C[C@H](O)CC[C@]4(C)[C@H]3C(=O)C[C@]12C	-21%	81%
NC(Cc1ccc(C(F)(F)F)cc1)c1csc(Nc2ncccn2)n1 (stereo not drawn)	-27%	6%
NC(=O)c1ccc(NC(=O)COC(=O)c2ccccc2SCC(=O)N2CCCC2)cc1	-2%	14%
COc1cc(N(C)C)ccc1[C@]1(O)C(=O)N(C)c2ccc(Br)cc21	-13%	0%
COc1ccc2nc(C(c3ccc(C)cc3)n3c(-c4ccccc4Br)nc4ccccc43)[nH]c2c1 (stereo not drawn)	12%	-4%
COc1ccc(CCNC(=O)CNS(=O)(=O)c2ccc(Br)cc2)cc1	-6%	6%
CCn1c(N)c(C(=O)COC(=O)CCc2nc3ccccc3c(=O)[nH]2)c(=O)[nH]c1=O	3%	6%
CC1(Cc2ccc(F)c(Cl)c2)C(=O)Nc2c(Cl)cccc21 (stereo not drawn)	u	u
O=C1N[C@H](Cc2ccccc2)C(=O)N2[C@@H]3[C@H](C[C@@H]12)c1ccccc1N3OOSc1ccccc1	u	15%
CCCCN(C(=O)COC(=O)C1(c2ccccc2)CC1)c1c(N)n(CCC)c(=O)[nH]c1=O	-25%	-2%
COCCN(C(=O)COC(=O)Cc1ccc(Cl)cc1)c1c(N)n(Cc2ccccc2)c(=O)[nH]c1=O	-6%	-8%
CC(C)(C)c1cc(NC(=O)C2(C)CCN2C(=O)C2(c3ccccc3)CC2)no1 (stereo not drawn)	-7%	-1%
CCOC(=O)c1c(C)nc(C)c(C(=O)OCC)c1-c1cccc([N+](=O)[O-])c1	-24%	-24%
CC(=O)Nc1ccc(CN2C(=O)C(C)(C)ON=C2c2ccc(C(F)(F)F)cc2)cc1	-10%	6%[18.4 µM]
CN(Cc1ccccc1)C(=O)c1[nH]cnc1C(=O)Nc1ccccc1F	0%	1%
COc1ccc(Cl)cc1CC1(C)C(=O)Nc2c(Cl)cccc21 (stereo not drawn)	-27%	-6%[18.4 µM]
O=C(NCC1CCCO1)c1ccc2c(c1)N(Cc1ccc(Cl)cc1)CCS2 (stereo not drawn)	-10%	5%
COc1cc(OC)c(N(C)C(=O)c2cc3c(s2)-c2ccccc2S(=O)(=O)C3)cc1Cl	0%	8%
C[C@@H]1CN([C@@H](C)CO)C(=O)c2cc(Br)cnc2O[C@H]1CN(C)C(=O)c1cccc(F)c1	-1%	11%
COc1ccccc1NC(=O)COC(=O)c1ccc2c(=O)n3c(nc2c1)CCC3	1%	13%
COC(=O)[C@]12CCCCC=C1N(Cc1cccc3ccccc13)C(=O)[C@H](CC(=O)N1CCC(c3ccccc3)CC1)C2	0%	3%
COc1ccccc1S(=O)(=O)N(C)C[C@@H]1Oc2ncc(-c3ccc(C)cc3)cc2C(=O)N([C@H](C)CO)C[C@@H]1C	-20%	1%
O=C(O)c1ccc2c(c1)S(=O)(=O)c1cc(N3CCN(c4ncccn4)CC3)ccc1C2=O	25%	10%
C[C@@H]1CN([C@H](C)CO)C(=O)CCCn2nncc2CO[C@H]1CN(C)C(=O)Cc1ccccc1	-21%	u
COc1cc(-c2c(NC(=O)c3ccco3)oc3ccc(Cl)cc3c2=O)cc(OC)c1OC	-18%	-1%
COc1cccc(-c2ccc(NC(=O)C3CCCN(Cc4cccc(C)n4)C3)cc2)c1 (stereo not drawn)	u	8%
Cc1cc2c(cc1C)C(=O)CCC2	-3%	8%
CC(C)NC(=O)c1cc(C2CCCCN2S(=O)(=O)c2ccc(C#N)cc2)on1 (stereo not drawn)	-11%	-3%
COc1ccc(C(=O)c2[nH]c(N)c(C(N)=O)c2-c2ccc(OC)c(OC)c2)cc1	u	-9%
COc1cccc(-c2csc(Nc3ccc(Oc4ccccc4)cc3)n2)c1	10%	8%
CSCCC(C(=O)NC1CCCC1)n1c(C2CC2)nc2ccccc21 (stereo not drawn)	-1%	u
C=Cc1ccc(Cn2c(C)c(C(=O)NCc3ccc4c(c3)OCCO4)sc2=O)cc1	-16%	7%[18.4 µM]
CCNC(=O)C1(C)CCCN(CC(=O)c2ccccc2OC)C1 (stereo not drawn)	-15%	-6%
Cc1ccc(-n2c(SCC(=O)NC3CCS(=O)(=O)C3)nc3ccccc3c2=O)c(C)c1 (stereo not drawn)	u	6%
c1ccc(CNc2c(C3CCNCC3)nc3scc(-c4ccccc4)n23)cc1	0%	u
OC(c1ccccc1)c1nc(/C=C/c2ccccc2)cs1 (stereo not drawn)	49%[activator]	-18%
COc1ccc(CNC(=O)Nc2ccc3c(c2)c(=O)n(C)n3Cc2cccc(C(F)(F)F)c2)cc1	-2%	13%
Cc1c(COc2ccc3ccccc3c2)nnn1CC(=O)NS(=O)(=O)c1ccccc1C(F)(F)F	-13%	-2%
C[C@H]1CN([C@@H](C)CO)C(=O)c2cc(Br)cnc2O[C@H]1CN(C)C(=O)c1ccc2c(c1)OCO2	-19%	11%
CC(=O)N1CCC(c2nc3ccccc3n2C(C)C(=O)NCc2ccccc2)CC1 (stereo not drawn)	-24%	0%
COc1cccc(C(C)(O)c2nc(-c3cnn(C)c3)cs2)c1 (stereo not drawn)	-20%	0%[18.4 µM]
CC1(C(=O)Nc2cccc3ncccc23)CCN1C(=O)C1(c2ccccc2)CC1 (stereo not drawn)	-21%	19%
CCN(C)C1CN(Cc2cn(Cc3ccc(F)cc3)nn2)S(=O)(=O)C1 (stereo not drawn)	-15%	5%
COCCCNc1ccn2nc(-c3ccc(Cl)cc3)cc2n1	-14%	-7%
Cc1ccc(Cn2c(CCNc3nc(-c4ccc(Cl)c([N+](=O)[O-])c4)cs3)nc3cc(Cl)c(Cl)cc32)cc1	-5%	-5%
COc1ccc(S(=O)(=O)Nc2ccc3c(c2)C(=O)N([C@H](C)CO)C[C@H](C)[C@@H](CN(C)Cc2ccncc2)OCCCC[C@@H](C)O3)cc1	12%	-18%
Cn1cc([C@]2(O)C(=O)Nc3ccccc32)c2ccccc21	-13%	4%
COc1ccccc1S(=O)(=O)N(C)C[C@H]1OCc2cn(nn2)CCCC(=O)N([C@@H](C)CO)C[C@@H]1C	-22%	-23%
CCCCN(C=O)c1c(CC)nc2ccc(C(=O)N3CCN(c4ccccc4)CC3)cn12	-4%	-6%
c1ccc(Sc2ccncc2)cc1	-6%	-2%
CCOc1ccc(Cl)cc1-c1cc(C(=O)Nc2ccc(Br)cc2)[nH]n1	-24%	11%

(listing goes on)
SMILES	2A StopGo	RE007 growth inh
CC(C)(C)S(=O)N1Cc2ccc(CO)cc2[C@@H]1CCO (stereo partly drawn)	40µM*	10%
CCN(C(=O)COC(=O)C1CCC(C(C)(C)C)CC1)c1c(N)n(Cc2ccccc2)c(=O)[nH]c1=O (stereo not drawn)	u	7%
CCC(=O)N1Cc2cc(C(=O)N(C)C)nc(-c3cccc(-c4cncnc4)c3)c2[C@@H]1CCO	-24%	17%
CN(C)c1cccc(CNC(=O)c2csc([C@H]3C[C@H](O)[C@@H](CO)O3)n2)c1	-8%	-7%[18.4 µM]
O=C(NCc1cccc(C(F)(F)F)c1)c1ccc2nc([C@@H]3O[C@H](CO)[C@@H](O)[C@H]3O)[nH]c2c1	-14%	4%[18.4 µM]
COc1cc(C(O)c2nc(-c3cccs3)cs2)ccc1F (stereo not drawn)	-8%	2%[18.4 µM]
CC(C)C[C@H]1CN([C@@H](CC(C)C)CN2CCCC2CN2C(=S)NC[C@@H]2Cc2ccccc2)C(=S)N1CC1CCCCC1 (stereo partly drawn)	-21%	0%
O=C(NC(c1ccccc1)c1ccc2ccccc2n1)C1CCN(Cc2cccc(C(F)(F)F)c2)CC1 (stereo not drawn)	-29%	-19%

Entries listed so far with a tert-butyl group (4):
SMILES	2A StopGo	RE007 growth inh
CC(C)C(=O)Nc1cccc(COc2ccc(CN(Cc3ccccc3)C(=O)OC(C)(C)C)cc2)c1	11µM*	10%
CC(C)(C)c1cc(NC(=O)C2(C)CCN2C(=O)C2(c3ccccc3)CC2)no1 (stereo not drawn)	-7%	-1%
CC(C)(C)S(=O)N1Cc2ccc(CO)cc2[C@@H]1CCO (stereo partly drawn)	40µM*	10%
CCN(C(=O)COC(=O)C1CCC(C(C)(C)C)CC1)c1c(N)n(Cc2ccccc2)c(=O)[nH]c1=O (stereo not drawn)	u	7%

A portion of the library; count on the stated rates, not on these rows.
